D2 agonist: agonists of human D2 dopamine receptor (beta-arrestin) | 0.084% of 360,000 active | activation, % (concentration not given with the values) | DiscoveRx PathHunter D2 beta-arrestin, luminescence, 90 min; 100% = 57 uM dopamine signal | AID 624465; in the data active = activation above about 40%; inconclusive = about 15% to 40%; inactive = below about 15%; note: compound concentration not given in the record; the text of the record calls up to 30% inactive
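DiscoveRx PathHunter D2 beta-arrestin cells (2,100/well) attached overnight, then compound-stimulated 90 min at 37 C in HBSS/10 mM HEPES/0.1% Tween-20 buffer; beta-galactosidase complementation read by luminescence after 1 h at ambient temperature. Dopamine 57 uM final (EC100) as control.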
gsp agonist: agonists of gsp mutant (McCune-Albright syndrome) | gsp mutant cells, cAMP HTRF, 30 min; control for the full effect not named in the record | Potency, µM (highest dose often 76.9 µM), for inactives: top-dose activation (cAMP increase), usual class: activators | 0.13% of 340,000 active | AID 624287; active = well fitted activation curve with a large enough effect; inconclusive = small, poorly fitted or top-dose-only effect, or another doubt; inactive = no such curve, though single readings can be large or run the other way; cell line not stated here;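 note: phosphodiesterase inhibitor Ro 20-1724 added with compounds to block cAMP breakdown; potency is the fitted concentration of half-maximal effect; nearly all actives have a fitted effect of over 60% in size; about a fifth of the inactives were tested at one dose only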
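Cells stably selected in G418 were plated at 2000/well, grown 16-24 hr, then given compounds in DMSO with the PDE inhibitor […] (300 uM solution added) for 30 min at 37C; cAMP was read by HTRF.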
D2 PAM: human D2 receptor positive allosteric modulation | P14416 | DiscoveRx D2 beta-arrestin cells, luminescence, 90 min; 100% = 57 uM dopamine signal | potentiation, % (concentration not given with the values) | 0.23% of 360,000 active; active = potentiation of 50% or more; inconclusive = 30% to 50%; inactive = 30% or less;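 note: compound concentration not given in the record; tested on top of an EC20 dose of dopamine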
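PathHunter beta-arrestin assay in DiscoveRx D2 cells. Compounds were added with an EC20 of dopamine (50 nM final) for 90 min at 37 deg C. Luminescence was read 1 h after detection reagent, with 57 uM dopamine as the EC100 control.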
gsp antag: antagonizes gsp, the McCune-Albright syndrome mutation; 0.4% of 340,000 active; gsp-mutant cells, cAMP HTRF, 30 min; control for the full effect not named in the record; Potency, µM (top dose mostly 76.9 µM), for inactives: at the top dose activity change, negative = inhibition, actives largely listed as inhibitors; AID 624288; active = falling curve of any shape with a large fitted effect; inconclusive = falling curve, mostly with a smaller effect; inactive = flat or rising curve; cell line not stated here;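 note: intracellular cAMP measured with PDE inhibitor Ro 20-1724 present during compound exposure; potency is the fitted concentration of half-maximal effect; % is set by controls: 0 for no effect and ±100 for the full control effect; nearly all actives have a fitted effect of over 65% in size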
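Cells, 2000/well, grown 16–24 h in DMEM 10% FBS with 0.5 mg/ml G418, then compounds plus […] (300 uM addition stock), 30 min at 37C. cAMP read by HTRF (cAMP-d2 and anti-cAMP antibody-K in lysis buffer) after 30 min RT.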
Six1-Eya2 inh: inhibitors of human Six1/Eya2 interaction; Q15475+O00167; AlphaScreen GST-Six1/His-Eya2 binding, biochemical; active compounds read low; control for the full effect not named in the record; activity change, % (no concentration beside the values); 0.56% of 360,000 active; in the data active = activity change below about -65%; inconclusive = about -30% to -65%; inactive = above about -30%; note: % is set by controls: 0 for no effect and ±100 for the full control effect
Target sequence (O00167 whole entry, looked up): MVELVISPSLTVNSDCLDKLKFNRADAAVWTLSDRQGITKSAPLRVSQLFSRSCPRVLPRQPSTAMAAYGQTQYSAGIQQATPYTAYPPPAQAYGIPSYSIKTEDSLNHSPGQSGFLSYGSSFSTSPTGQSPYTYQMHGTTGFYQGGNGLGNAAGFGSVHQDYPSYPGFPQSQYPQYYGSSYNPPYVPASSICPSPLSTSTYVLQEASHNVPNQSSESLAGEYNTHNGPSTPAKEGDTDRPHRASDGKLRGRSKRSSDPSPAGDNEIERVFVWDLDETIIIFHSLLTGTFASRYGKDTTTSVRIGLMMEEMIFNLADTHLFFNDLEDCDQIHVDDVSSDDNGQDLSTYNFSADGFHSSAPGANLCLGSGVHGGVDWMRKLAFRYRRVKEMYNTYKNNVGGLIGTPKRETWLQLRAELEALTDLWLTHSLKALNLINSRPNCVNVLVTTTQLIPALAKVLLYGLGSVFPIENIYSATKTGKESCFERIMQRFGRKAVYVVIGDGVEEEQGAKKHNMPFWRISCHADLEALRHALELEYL
Target sequence (Q15475 whole entry, looked up): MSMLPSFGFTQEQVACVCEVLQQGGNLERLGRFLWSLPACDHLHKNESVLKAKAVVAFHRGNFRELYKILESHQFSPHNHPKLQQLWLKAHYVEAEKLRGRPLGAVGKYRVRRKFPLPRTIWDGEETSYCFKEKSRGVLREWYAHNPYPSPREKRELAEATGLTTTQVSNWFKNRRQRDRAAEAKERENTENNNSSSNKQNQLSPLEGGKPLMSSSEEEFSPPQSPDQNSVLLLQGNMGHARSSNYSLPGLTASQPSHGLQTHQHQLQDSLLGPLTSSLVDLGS
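Compounds are tested against tagged Six1 and Eya2 proteins bridged by glutathione donor and nickel acceptor beads; after a one-hour incubation at 37 °C without light, AlphaScreen emission is recorded.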
CtBP-E1A blk: inhibitors of CtBP/E1A interaction; AlphaScreen GST-E1A/His-CtBP binding, 1536-well; active compounds read low; control for the full effect not named in the record; activity change, % (test concentration not listed); 0.49% of 340,000 active; in the data active means activity change below about -65%; inconclusive means about -30% to -65%; inactive means above about -30%; note: % is set by controls: 0 for no effect and ±100 for the full control effect
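Protein mix (5X: 125 nM each GST-E1A, His-CtBP) was incubated with pinned compound 2 h at 37 deg C in dark, in 50 mM Tris pH 8.0 buffer with 300 mM NaCl. Glutathione donor and nickel acceptor beads followed; AlphaScreen signal read after 1 h.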
Numbers without * were called inactive; ? = inconclusive; / = no result given; [ ] = remark or other dose.

#	mol	D2 agonist	gsp agonist	D2 PAM	gsp antag	Six1-Eya2 inh	CtBP-E1A blk
1	C[C@H](CO)N1C[C@H](C)[C@@H](CN(C)C(=O)C2CCCCC2)OCc2cn(nn2)CCCC1=O	-1.8	?	4	/	2	-5
2	CCc1ccc(CN2CCCC(CCC(=O)N3CCN(c4ccccn4)CC3)C2)o1 (stereo not drawn)	0.6	-11%	-20	-1%	-7	/
3	COc1ccc(NC(=O)C(c2ccc(OC)cc2)N(C)C(=O)CC2NC(=O)NC2=O)cc1 (stereo not drawn)	0.9	-5%[15.4 µM]	-18	-1%	35	6
4	O=C(COC(=O)c1ccco1)Nc1ccc(Br)cc1	-1.0	-25%	5	4%	5	3
5	Cc1sc2ncnc(NCCCN3CCCC3=O)c2c1C	7.6	-37%	7	5%	10	5
6	CCOc1ccccc1NC(=O)c1ccc(S(=O)(=O)N(C)c2ccccc2)cc1	1.2	-15%	0	-14%	-4	7
7	CCN1CCN(c2cc(C(C)(C)C)nc3c(-c4ccccc4)c(C)nn23)CC1	-2.2	16%	-16	6%	13	10
8	O=C(Nc1ccccc1N1CCCC1)c1cc(Cl)ccc1Cl	-5.8	0%	-3	-3%	-2	/
9	Cc1occc1-c1nnc(SCC(=O)N2CCN(c3ccc(F)cc3)CC2)n1C	-3.9	0%	-4	1%	0	-1
10	COc1cccc(-n2nc(C(=O)O)c3ccccc3c2=O)c1	2.7	6%	0	-22%	-1	6
11	Cc1ccc(C)c(C(=O)COC(=O)CN2C(=O)C3C4CCC(C4)C3C2=O)c1 (stereo not drawn)	-5.3	-5%[15.4 µM]	1	-1%	0	-2
12	Cc1ccc(N2Cc3ccccc3C2=O)cc1	6.0	?	?	4%	2	/
13	O=C1OC(c2ccc3c(c2)OCO3)=N/C1=C\c1ccc(C(=O)O)cc1	-1.1	30%[15.4 µM]	-6	4%	-4	-1
14	CCOc1ccc2nc(SCC(=O)N(C)C3CCS(=O)(=O)C3)[nH]c2c1 (stereo not drawn)	0.0	-3%	11	13%	1	-2
15	Cc1ccc(NCCCCO)cc1C	0.7	-7%[15.4 µM]	-3	-4%	0	-2

Reprinted from the part before: four entries, then new ones.
#	mol	D2 agonist	gsp agonist	D2 PAM	gsp antag	Six1-Eya2 inh	CtBP-E1A blk
12	Cc1ccc(N2Cc3ccccc3C2=O)cc1	6.0	?	?	4%	2	/
13	O=C1OC(c2ccc3c(c2)OCO3)=N/C1=C\c1ccc(C(=O)O)cc1	-1.1	30%[15.4 µM]	-6	4%	-4	-1
14	CCOc1ccc2nc(SCC(=O)N(C)C3CCS(=O)(=O)C3)[nH]c2c1 (stereo not drawn)	0.0	-3%	11	13%	1	-2
15	Cc1ccc(NCCCCO)cc1C	0.7	-7%[15.4 µM]	-3	-4%	0	-2
16	O=C(NC1CCCC1)C(c1ccccc1F)N(C(=O)Cc1cccs1)c1ccc2c(c1)OCCO2 (stereo not drawn)	0.2	?	8	?	-7	-1
17	CCNC(=O)c1ccc(-n2nc(C)cc2-c2ccccc2)cc1	-2.6	0%	-4	-6%	3	11
18	COCCCNC(=O)c1ccccc1NS(=O)(=O)c1ccc(C)cc1	-4.4	0%	-9	-6%	4	3
19	O=C(N/N=C\c1ccc(Cl)cc1Cl)c1sccc1-n1cccc1	1.3	-9%	-8	-24%	-14	-9
20	COC(=O)c1cccc(NC(=O)CSc2ncn[nH]2)c1	0.5	-17%	-4	-1%	1	-4
21	COc1ccc(Cn2c(C)nnc2-c2cnn(C)c2N)cc1	-0.2	9%	-6	5%	2	-8
22	Nc1cc(-c2cccc(F)c2)nn1S(=O)(=O)c1cccc2nsnc12	0.5	-13%	1	-3%	-21	-7
23	Cc1cc(C)nc(/N=C(\N)Nc2ccc(C(C)C)cc2)n1	-5.9	-4%[15.4 µM]	-18	-16%	2	-3
24	Cn1cccc1Cc1nnc(SCC(=O)Nc2ccccc2)n1-c1ccc(F)cc1	-1.0	-8%	-5	-8%	-4	11
25	O=C(c1ccccn1)N(Cc1ccco1)C1(C(=O)NC2CCCC2)CCCCC1	-2.8	-2%	-7	9%	0	-1
26	Cc1oc(-c2ccoc2)nc1CN(CC1CCC(=O)N1)C(C)C (stereo not drawn)	-2.7	-14%	-1	2%	10	-5
27	COC(=O)c1ccsc1NC(=O)c1ccco1	-1.6	?	-6	-6%	-4	5
28	CCN1C(=O)/C(=C/C=C2\C=CN(CC)c3ccccc32)SC1=S	2.1	-71%[inhibitor]	5	?	-26	5
29	O=C(NCCc1ccccc1)c1c(F)cccc1F	4.0	13%	0	8%	2	6
30	CCOC(=O)c1ccc(N2Cc3ccccc3C2=NC(=O)c2ccncc2)cc1	-4.7	-10%	-4	28%	-3	10

The results go on:
#	mol	D2 agonist	gsp agonist	D2 PAM	gsp antag	Six1-Eya2 inh	CtBP-E1A blk
31	Cc1cnc(NC(=O)CCc2ccccc2)s1	-2.0	-40%[inhibitor]	-10	8%	5	/
32	CC(=O)NC1=NN(c2ccccc2)C(=O)C1	-7.5	3%	-1	-1%	3	3
33	CCCc1nc2ccccc2c(=O)n1-c1ccc(C(=O)OCC)cc1	-0.3	1%[15.4 µM]	-3	5%	1	1
34	CC(=O)Oc1ccc(C(=O)Nc2cc(C)ccc2NC(=O)COc2ccccc2)cc1	-0.6	?	-1	-25%	-1	4
35	COc1cc(OC)c(OC)cc1CNC(=O)c1cc(S(=O)(=O)N(C)c2ccccc2OC)ccc1C	2.8	-46%[inhibitor]	1	-29%	-3	-8
36	CC(C)[C@H](NS(=O)(=O)c1ccccc1)C(=O)OCn1nnc2ccccc2c1=O	-5.1	19%	-15	29%	28	0
37	Nc1ccc(C(=O)NCCCCCCNC(=O)c2ccc(N)cc2)cc1	-1.6	?	-5	12%	-1	-2
38	O=C(c1ccc2c(c1)OCO2)C1CCCN(C(=O)Nc2ccc(F)cc2F)C1 (stereo not drawn)	-2.7	0%	-7	4%	23	0
39	O=C(COC(=O)c1ccc(Cl)cc1O)NC(=O)C1CCCCC1	0.2	-5%[15.4 µM]	-24	/	3	-4
40	CCN(CC)S(=O)(=O)c1ccc(NN=C2CCN(C(C)C)CC2)c([N+](=O)[O-])c1	-1.0	6%	-6	-7%	-11	-18
41	O=C(Cn1cc(SCc2ccc(F)cc2)c2ccccc21)N1CCOCC1	-0.1	-13%	-12	1%	-8	4
42	COc1ccccc1OCC(=O)NCC1CCCN(Cc2cnn(C(C)C)c2)C1 (stereo not drawn)	-3.6	5%	-12	6%	4	5
43	Cc1ccc(SCC(=O)OCC(=O)N(C)CC(=O)Nc2ccc(F)cc2)cc1	-3.4	-14%[15.4 µM]	-6	10%	-2	-6
44	N#C/C(=C\C1=C(N2CCOCC2)C(=C\c2ccc(Cl)cc2)/CC1)C(=O)Nc1ccccc1F	-1.9	6%	5	7%	-19	0
45	O=C(CC1(O)C(=O)c2ccccc2C1=O)c1ccccc1	0.9	-22%	-6	0%	6	7

(listing goes on)
#	mol	D2 agonist	gsp agonist	D2 PAM	gsp antag	Six1-Eya2 inh	CtBP-E1A blk
46	COc1ccc(-c2c(-c3ccc4c(c3)OCO4)noc2C)cn1	0.7	?	-4	-1%	8	/
47	COc1cnn(-c2ccc(C)cc2)c(=O)c1SCc1ccccc1	-3.7	?	-12	32µM*	5	5
48	CC1CCCN(S(=O)(=O)c2ccc3c(c2)n(C)c(=O)c(=O)n3C)C1 (stereo not drawn)	-2.2	14%	-8	50µM*	0	-3
49	COC(=O)[C@@H]1C[C@@]2(O)[C@H](O)[C@H](O)[C@H](O)C[C@H]2N1Cc1ccc(C)s1	2.2	/	2	13%	3	4
50	CCc1ccc(NS(=O)(=O)c2cc3c(cc2C)n(C)c(=O)c(=O)n3C)cc1	-0.2	-1%	-1	-3%	-3	-1
51	CCOc1ccc(/C=N/n2c(C)nnc2C)cc1OC	1.6	-10%[15.4 µM]	2	-9%	3	-18
52	CC(c1nccs1)N(C)C(=O)CCc1nnc(CCc2ccccc2)o1 (stereo not drawn)	-7.3	-11%	0	5%	6	6
53	COc1ccc(/C=N/Nc2nncc3ccccc23)cc1	-1.6	?	-10	15%	-14	0
54	CC(C)(C)NCc1cc(Br)ccc1OCc1cccs1	-2.1	-2%	-19	10%	2	13
55	COc1ccc(S(=O)(=O)N2CCOCC2)cc1C(=O)N(C)Cc1ccco1	0.8	0%	1	11%	-4	/
56	CC(C)C1CCN(C(=O)C2CCC(=O)N(CCc3ccc(Cl)cc3)C2)CC1 (stereo not drawn)	3.2	-34%[inhibitor]	17	4%	-4	7
57	O=C(O)CCNS(=O)(=O)c1cccc(Br)c1	-2.3	12%	-3	13%	0	5
58	CCC(C)[C@H](NC(=O)N1CCCC1)C(=O)O (stereo partly drawn)	-2.3	2%	9	6%	9	5
59	CC(=O)OC(C)CS(=O)(=O)c1ccccc1 (stereo not drawn)	-3.1	1%[15.4 µM]	0	1%	7	-1
60	COc1ccccc1Nc1nc(N)nc(CSC(=S)N2CC(C)CC(C)C2)n1 (stereo not drawn)	0.3	6%	-21	-5%	-11	-1

(cont.)
#	mol	D2 agonist	gsp agonist	D2 PAM	gsp antag	Six1-Eya2 inh	CtBP-E1A blk
61	CCc1cc(C(=O)N2CCCC(C(=O)c3cccc4ccccc34)C2)n(C)n1 (stereo not drawn)	4.9	-7%[15.4 µM]	-4	-17%	5	-25
62	COc1ccc(S(=O)(=O)N2CCCN(CC(=O)Nc3ccccc3F)CC2)cc1	-2.5	-8%	-4	-4%	1	-8
63	Cc1ccc(S(=O)(=O)NCC(=O)N(CC(=O)NCc2ccco2)Cc2ccc(F)cc2)cc1	0.7	1%[15.4 µM]	-3	7%	-3	5
64	C=C1C[C@H](O)[C@@H]2[C@H](OC(=O)[C@H]2C)[C@H]2[C@H](C)[C@@H](O)C[C@@H]12	0.0	/	-7	6%	4	3
65	COc1ccc(C(=O)NC2CCN(S(=O)(=O)c3ccc(C)cc3)CC2)cc1	-4.2	1%	-8	10%	0	10
66	CSc1ccccc1C(=O)NC1CCCc2ccccc21 (stereo not drawn)	-0.4	10%[15.4 µM]	1	2%	0	-1
67	Cc1cc(SCc2ccc(Cl)cc2Cl)nc(=O)[nH]1	-1.6	-16%	-10	0%	4	/
68	COc1ccc(C(=O)N/N=C(\C)CC(=O)Nc2ccc3c(c2)OCCO3)c(OC)c1	-2.2	11%	-4	-3%	-14	-16
69	COc1cccc(C(=O)Nc2ccc(C(=O)c3ccccc3)cc2)c1	1.7	-1%	-3	?	-3	/
70	CC(NS(=O)(=O)c1ccc(OCC(=O)N2CCCC2)cc1)c1ccccc1 (stereo not drawn)	0.7	-40%[inhibitor]	-2	1%	1	2
71	CC(=O)c1cccc(NC(=O)C2C3CCC(C3)C2C(=O)O)c1 (stereo not drawn)	-3.3	-4%	-1	8%	5	9
72	COc1cc(OC)cc(C(=O)N[C@H](C(=O)OCC(=O)Nc2cccnc2Cl)C(C)C)c1	-3.5	?	-5	0%	2	/
73	COc1ccc(-n2ccnc2SCC(=O)NO)cc1	-4.6	?	1	-4%	3	3

High-throughput results from PubChem.
